Compound activity from PubChem.
KCNQ2 inh = KCNQ2 potassium channel inhibitors, primary screen, cell-based, CHO-K1, FluxOR thallium flux, B-score (AID 2156); Potassium voltage-gated channel subfamily KQT member 2 (Rattus norvegicus), O88943; 20 min; hits give low values; only compounds with negative scores are shown here; some inactives read as strong as hits; B-score at 10 µM; 310,000 tested, 1.1% active;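 active = fluorescence ratio B-score at most minus 3 library SDs, with starting brightness B-score within 2 library SDs, cut at about -5.5 in these data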
Target sequence (O88943 whole entry, looked up): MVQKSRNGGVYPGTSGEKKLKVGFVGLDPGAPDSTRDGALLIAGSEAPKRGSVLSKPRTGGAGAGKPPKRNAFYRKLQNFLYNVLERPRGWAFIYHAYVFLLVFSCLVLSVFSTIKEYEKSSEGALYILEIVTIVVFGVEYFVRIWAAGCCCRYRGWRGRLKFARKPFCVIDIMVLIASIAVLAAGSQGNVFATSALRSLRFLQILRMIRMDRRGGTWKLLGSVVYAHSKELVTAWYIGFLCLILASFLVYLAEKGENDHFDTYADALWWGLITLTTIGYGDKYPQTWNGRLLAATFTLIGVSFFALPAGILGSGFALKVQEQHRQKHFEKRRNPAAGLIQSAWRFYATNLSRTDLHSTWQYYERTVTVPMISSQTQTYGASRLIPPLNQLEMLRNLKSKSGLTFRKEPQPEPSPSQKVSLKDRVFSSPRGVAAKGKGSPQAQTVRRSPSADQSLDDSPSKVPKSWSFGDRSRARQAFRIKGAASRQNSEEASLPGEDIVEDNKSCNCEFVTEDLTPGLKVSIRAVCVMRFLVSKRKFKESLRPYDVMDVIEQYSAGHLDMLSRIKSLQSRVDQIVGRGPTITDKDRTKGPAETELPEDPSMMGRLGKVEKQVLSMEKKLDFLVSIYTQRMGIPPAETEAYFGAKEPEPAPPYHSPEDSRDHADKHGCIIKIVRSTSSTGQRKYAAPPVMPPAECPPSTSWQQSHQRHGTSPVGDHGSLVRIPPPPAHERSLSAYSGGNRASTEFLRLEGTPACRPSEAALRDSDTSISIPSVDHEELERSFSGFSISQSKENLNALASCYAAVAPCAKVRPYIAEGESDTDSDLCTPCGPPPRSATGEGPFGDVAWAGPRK
KCNQ2 inh baseline = also measured in KCNQ2 inh; calls as there; B-score; measured here: initial fluorescence intensity artifact check;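 brightness before thallium and not channel activity; 0 = typical well and far values either way flag optical interference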
The depositor's hits bear a star; i = inactive.

SMILES	KCNQ2 inh	KCNQ2 inh baseline
Cc1ccc(NS(=O)(=O)c2c(C)[nH]c(C)c2C(=O)N2CCCCC2)c(Cl)c1	i	-1.7
N/C(=N\O)c1cn(Cc2ccccc2Cl)c2ccccc12	i	3.6
COC(=O)c1c(NC(=O)COC(=O)CNC(=O)c2ccco2)sc(C)c1C	i	-0.87
CCc1ccc(NC(=O)c2ccccc2SC)cc1	i	-0.3
COc1ccc(C(=O)NNC(=S)NC(=O)c2ccc(F)cc2)cc1Br	i	-0.61
Cc1ccc(S(=O)(=O)N2CCC(=O)N(CCOCc3cccc(F)c3)CC2)cc1	i	0.61
Cc1cc(C(F)(F)F)nc2c(Cl)c(C(C)(C)C)nn12	i	-1.5
O=C(NCc1nc2ccccc2[nH]1)C1=C[C@H](c2ccccc2)C[C@H](OCCCCO)O1	i	-2
CCCCOc1ccc(CN2CCSCC2)cc1	i	-1.8
O=C1CC(CSc2ccc(Cl)cc2)=NN1	i	0.21
COc1cccc(/C=N/NC(=O)CO/N=C(\C)c2cccs2)c1OC	i	0.57
Cc1ccc(-c2nnc3sc(-c4ccncc4)nn23)cc1	i	-0.14
C#CCOCCOCCOCCNc1nc(N2CCN(C(=O)[C@H]([C@@H](C)CC)n3cc([C@@H](N)CO)nn3)CC2)nc(N2CCN(C(=O)[C@H](Cc3cc4ccccc4[nH]3)n3cc([C@@H](N)Cc4ccc(O)cc4)nn3)CC2)n1	i	1.9
CCC1(C)Cc2c(sc3nc(SC)n(Cc4ccccc4)c(=O)c23)CO1 (configuration not stated)	i	3.2
CCOC(=O)C1=C(c2ccccc2)NC(=O)NC1c1ccc(OC)c(OC)c1 (configuration not stated)	i	-0.55
O=C(CCNC(=O)c1ccc(Cl)cc1)Nc1ccncc1	i	0.62
O=C(COc1cc2oc(=O)c3c(c2cc1Cl)CCC3)NCc1ccccn1	i	0.02
O=C(O)C1CCCCC1C(=O)Nc1cc(Cl)ccc1Cl (configuration not stated)	i	0.67
COc1cc2c(cc1OC)C(c1cc3cc4c(cc3[nH]c1=O)OCO4)N(C(=O)C1CC1)CC2 (configuration not stated)	i	0.39
COc1ccc2nc(N/C(=N/S(=O)(=O)c3cccs3)c3ccccc3Cl)sc2c1	i	0.08
Cc1ccc(NC(=O)Nc2ccc3c(c2)OCO3)c(Br)c1	i	-0.02
CC(C)Oc1ccc(CNC(=O)c2ccc3nc(N4CCOCC4)sc3c2)cc1	i	5.2
COc1cc(S(=O)(=O)n2nnc3ccccc32)c(OC)cc1Cl	i	3.3
Cc1cc2c(cc1C)N(Cc1ccc(Cl)cc1)C1=NCCCN12	i	1.5
Cc1ccc(OCc2nnc(NC(=O)Cc3cccs3)s2)cc1	i	-0.48
CCOC(=O)c1nc2cc3n(c(CC(C)C)c-2c1C)CC(C)=C3C	i	0.03
CN(CC(=O)Nc1c(Cl)cccc1Cl)C(=O)c1ccc2nc[nH]c2c1	i	-0.87
O=C(Nc1ccc(N2CCCC2)c(Cl)c1)c1cccc(-c2cc3ccccc3oc2=O)c1	i	-0.49
O=C(CN1C(=O)COc2ccc(Cl)cc21)Nc1ccc(N2CCOCC2)cc1	i	0.2
O=C(CN1CCN(S(=O)(=O)N2CCCCCC2)CC1)Nc1ccc(Br)cc1	i	-0.89
CCOc1ccc(NC(=O)CN(C)C(=O)c2c(C)nn(-c3ccccc3)c2Cl)cc1OCC	i	-1.1
COc1cccc(-c2ccc(SCC(=O)NC3CCCC3)nn2)c1	i	-0.34
Cn1c2ccccc2c2c(C(=O)O)cn(C3CCCC3)c(=O)c21	i	-0.02
COc1ccc(Br)cc1CNCC1CCCO1 (configuration not stated)	i	0.72
CCO[C@@H]1OC(C(=O)N2CCN(Cc3ccccc3)CC2)=C[C@H](c2ccc(C(F)(F)F)cc2)[C@H]1CCCO	i	0.62
COc1ccc(C(=O)NCC(c2ccco2)N2CCc3ccccc3C2)cc1 (configuration not stated)	i	-0.64

Reprinted from the part before: two compounds, followed by the next part.
SMILES	KCNQ2 inh	KCNQ2 inh baseline
CCO[C@@H]1OC(C(=O)N2CCN(Cc3ccccc3)CC2)=C[C@H](c2ccc(C(F)(F)F)cc2)[C@H]1CCCO	i	0.62
COc1ccc(C(=O)NCC(c2ccco2)N2CCc3ccccc3C2)cc1 (configuration not stated)	i	-0.64
CC(C)(C)NC(=O)C(c1ccco1)N(C(=O)c1ccc(CN2CCOCC2)o1)c1ccccc1 (configuration not stated)	i	-0.71
Cc1scc(C(=O)N/N=C/c2ccc(OCC(C)C)cc2)c1C	i	-0.87
COc1c(C)cccc1C(=O)Nc1ccc(CN2CCCCC2)cc1	i	0.11
CCOc1ccc(N2C(=O)/C(=C\c3ccc(O)c(OC)c3)S(=O)(=O)C2c2cccc([N+](=O)[O-])c2)cc1 (configuration not stated)	i	1.4
Cc1ccccc1Cn1c(NC2CCCC2)nc2c1c(=O)[nH]c(=O)n2C	i	1.5
Cc1nn(-c2ccccc2)c(N)c1C(c1ccc(C(C)C)cc1)c1c(C)nn(-c2ccccc2)c1N	i	1.2
CCOC(=O)c1c(C)n(C)c2ccc(OC)c(NS(=O)(=O)c3ccc(Cl)s3)c12	i	0.26
CC(c1ccccc1)N1CC(C(=O)NC2CCCC2)CC1=O (configuration not stated)	i	2.4
CN(Cc1ccc(F)cc1)C(=O)c1cccc(S(=O)(=O)N2CCN(Cc3ccccc3)CC2)c1	i	-0.26
Cc1ccc(C)c(OCC(=O)NNC(=O)C2CC2)c1	i	-0.38
Cc1ccc(/C=c2\sc3nc(-c4ccco4)nn3c2=O)o1	i	-0.08
O=C(Nc1ccc(Br)cc1)c1ccc(F)c(S(=O)(=O)NCc2cccs2)c1	i	0.84
Cc1ccnc(SCc2ccc([N+](=O)[O-])cc2)n1	i	-1.9
CCOc1ccccc1N(C(=O)c1snc(C(N)=O)c1N)C(C(=O)NC1CCCC1)c1ccco1 (configuration not stated)	i	2.1
O=C(COC(=O)C1CCC1)NCc1ccc(Cl)cc1Cl	i	1.7
COc1ccc(N(CC(=O)NC2CCCC2)C(=O)Cn2nnc(-c3ccc(C)cc3)n2)cc1	i	0.44
CC(=O)c1ccc(Oc2ncnc3sccc23)cc1	i	-1.2
CCc1nc(CN2CCCC(C(=O)c3ccc4c5c(cccc35)CC4)C2)c(C)[nH]1 (configuration not stated)	i	-1.8
CC(C)(C)C(=O)N1CCN(c2ncnc3scc(-c4ccccc4)c23)CC1	i	-1.8
COC(=O)c1ccc(N2C(=O)CC(SCCN)C2=O)cc1 (configuration not stated)	i	-0.65
CC(CNC(=O)c1cc(COc2c(F)cccc2F)on1)c1ccccc1 (configuration not stated)	i	1.9
CC(C)(C)c1cc(C(=O)NN)n(Cc2ccc(Cl)cc2Cl)n1	i	-1.1
CN1CC=C2C(C#N)=C(N)C(C#N)(C#N)[C@H](c3ccoc3)[C@H]2C1	i	2.1
O=C(Nc1ccc2c(c1)OCCO2)C1CCCN1S(=O)(=O)c1cccc2cccnc12 (configuration not stated)	i	1.1
S=C(NCC1CCCO1)NC1CC1 (configuration not stated)	i	0.98
COCCCNS(=O)(=O)c1ccc(SC)cc1	i	-0.1
COC(=O)[C@@H]1C[C@@]2(O)[C@H](O)[C@H](O)[C@H](O)C[C@H]2N1Cc1ccc(C)s1	i	2.1
O=C(Nc1ccccc1)C1CCCN1S(=O)(=O)c1ccc(Br)cc1 (configuration not stated)	i	-1.1
O=C(O)C1C2C=CC(C2)C1C(=O)Nc1ccccc1Br (configuration not stated)	i	-0.08
COc1ccc(N=C2SC(CC(=O)Nc3ccccc3)C(=O)N2Cc2ccco2)cc1 (configuration not stated)	i	-0.49
Cc1cc(C(=O)N(C)CC2CCCN(CCc3ccc(F)cc3)C2)c(C)o1 (configuration not stated)	i	-0.83
CC(=O)NC(CC(=O)O)c1ccc([N+](=O)[O-])cc1 (configuration not stated)	i	0.73
OC(COCc1ccc(Cl)cc1)CN1CCN(CC(O)COCc2ccc(Cl)cc2)CC1 (configuration not stated)	i	-0.25
CC(C)OCCCNC(=S)NNC(=O)c1ccc(Cl)c(Cl)c1	i	0.05
CCC1CCCCN1CCCNC(=O)c1ccc2nc(N3CCC(C)CC3)sc2c1 (configuration not stated)	i	-0.79
CC(=O)NC1(c2ccccc2)CCN(C(=O)N2CCOCC2)CC1	i	-2.9

Arranged by SMILES length (smallest number first): 14 of the compounds above
SMILES	KCNQ2 inh	KCNQ2 inh baseline
S=C(NCC1CCCO1)NC1CC1 (configuration not stated)	i	0.98
COCCCNS(=O)(=O)c1ccc(SC)cc1	i	-0.1
COC(=O)c1ccc(N2C(=O)CC(SCCN)C2=O)cc1 (configuration not stated)	i	-0.65
CC(C)OCCCNC(=S)NNC(=O)c1ccc(Cl)c(Cl)c1	i	0.05
CC(=O)NC(CC(=O)O)c1ccc([N+](=O)[O-])cc1 (configuration not stated)	i	0.73
CC(=O)NC1(c2ccccc2)CCN(C(=O)N2CCOCC2)CC1	i	-2.9
CC(C)(C)c1cc(C(=O)NN)n(Cc2ccc(Cl)cc2Cl)n1	i	-1.1
O=C(Nc1ccccc1)C1CCCN1S(=O)(=O)c1ccc(Br)cc1 (configuration not stated)	i	-1.1
CCC1CCCCN1CCCNC(=O)c1ccc2nc(N3CCC(C)CC3)sc2c1 (configuration not stated)	i	-0.79
Cc1cc(C(=O)N(C)CC2CCCN(CCc3ccc(F)cc3)C2)c(C)o1 (configuration not stated)	i	-0.83
CC(C)(C)C(=O)N1CCN(c2ncnc3scc(-c4ccccc4)c23)CC1	i	-1.8
COc1ccc(N=C2SC(CC(=O)Nc3ccccc3)C(=O)N2Cc2ccco2)cc1 (configuration not stated)	i	-0.49
CN1CC=C2C(C#N)=C(N)C(C#N)(C#N)[C@H](c3ccoc3)[C@H]2C1	i	2.1
COC(=O)[C@@H]1C[C@@]2(O)[C@H](O)[C@H](O)[C@H](O)C[C@H]2N1Cc1ccc(C)s1	i	2.1

The results go on.
SMILES	KCNQ2 inh	KCNQ2 inh baseline
CCOc1ccc(-c2csc(NC(=O)CSCC(=O)O)n2)c2ccccc12	i	-0.52
O=C(COC(=O)COc1ccccc1)NCc1ccccc1	i	-0.38
CN1CCN(C(=O)c2ccccc2[N+](=O)[O-])CC1	i	0.33
Cc1ccc(N(C)S(=O)(=O)c2cccc(C(=O)Nc3ccc(C)cn3)c2)cc1	i	0.65
COc1ccc(OC)c2[nH]c(=O)c(CCNS(=O)(=O)c3ccccc3)cc12	i	-0.45
C/C(=N\N=C\c1ccccc1)c1nnn(-c2nonc2N)c1C	i	-0.15
O=C(Nc1ccccn1)c1ccc2ccccc2c1O	i	-1.4
COc1cc2nc(SCc3ccc(F)cc3)n(Cc3cccs3)c(=N)c2cc1OC	i	-0.59
COc1ccc(C(=S)NCS(=O)(=O)c2ccc(C)cc2)cc1	i	2.4
O=C(CCc1nc2sc3c(c2c(=O)[nH]1)CCCC3)NCCc1ccc(F)cc1	i	0.63
CCN1CCN(CC(=O)Nc2ccc(OC(F)(F)F)cc2)CC1	i	-1.3
CC1CCCC(NC(=O)COC(=O)COc2ccccc2Cl)C1C (configuration not stated)	i	3.1
CCN(Cc1ccccc1)c1ccc(/C=N/N=C(N)N)cc1	i	0.18
CCN(CC)c1ccc(/C=N/NC(=O)c2cc(C)nc3ccccc23)cc1	i	-0.69
COc1ccc(N2CCN(Cc3nc4c(c(=O)n(C)c(=O)n4C)n3CCc3ccccc3)CC2)cc1	i	-0.83
CC(=O)N1Cc2ccccc2CC1C(=O)NCc1ccccc1F (configuration not stated)	i	0.66
O=C(Nc1sc2c(c1C(=O)NCc1ccco1)CCCC2)c1ccc2c(c1)OCO2	i	1.2
CCOC(=O)C1(CC2CC2)CCN(S(=O)(=O)C[C@]23CC[C@H](CC2=O)C3(C)C)CC1	i	-0.12
O=C(COC(=O)c1cccc([N+](=O)[O-])c1)c1ccc2c(c1)OCO2	i	1.1
S=c1[nH]nc(-c2ccc3ccccc3n2)n1-c1ccc2ncccc2c1	i	-1.1
Cc1ccc(S(=O)(=O)N2CCN(C(=O)c3sccc3C)CC2)cc1	i	0.27
CN(C)N(C)C(=O)C(O)(c1ccccc1)c1ccccc1	i	-0.88
CCN(C(=O)COC(=O)CNS(=O)(=O)c1ccc2ccccc2c1)C1CCCCC1	i	1.3
O=C(NCC1CCCO1)c1ccc(COCC(F)(F)C(F)F)cc1 (configuration not stated)	i	0.98
Cc1ccc(C(=O)N2CCC3(CC2)Oc2ccc(F)cc2C(=O)C32CC(c3cccnc3)=NO2)s1 (configuration not stated)	i	0.36
CC(=O)c1cc(NC(=O)c2ccc(C)cc2)c(=O)oc1/C=C/N(C)C	i	-1
CC(C)OC(=O)CSc1nnc(-c2ccc(O)cc2)n1Cc1ccccc1	i	1.2
CCC(C)NC(=O)c1ccccc1NC(=O)COc1ccc(OC)cc1 (configuration not stated)	i	0.62
COc1ccccc1CC(=O)NNC(=O)c1cccs1	i	-1.5
CCOC(=O)CC1CCCCN1C(=O)c1cc(COc2cccc3cnccc23)on1 (configuration not stated)	i	-2.4
COc1ccc(F)cc1S(=O)(=O)NCC(=O)NCc1cc(=O)n(C)c(=O)n1C	i	1.2
CCOc1ccc(C(=S)NC2CCCCC2)cc1OCC	i	-3.4
Cc1nc(CNC(=O)c2cc(COc3ccc(F)cc3Cl)on2)cs1	i	0.1
CCn1c(CNc2nc(-c3ccccc3)cs2)nnc1SCC(=O)NCc1ccccc1	i	-0.02
CN(C)S(=O)(=O)N1CCN(c2ccc([N+](=O)[O-])c(NC3CC3)c2)CC1	i	-0.6
COc1ccc(/C=N/NC(=O)c2ccn[nH]2)cc1COc1ccc(F)cc1	i	-0.33
COc1ccc(F)cc1COc1nc(C)nc2ccccc12	i	-2.5
Cc1nn(C)cc1C1C(C#N)=C(N)N(c2cccnc2)C2=C1C(=O)CCC2 (configuration not stated)	i	1.7
O=C(c1c(F)cccc1F)N1CCC(n2nnc3cc(C(F)(F)F)ccc32)CC1	i	0.61
O=C(NCCCn1ccnc1)c1ccccc1F	i	1.9

These rows are one share of the data (hit frequency here may not be typical).
